# StopGo reporter: lowers the luciferase signal of an FMDV 2A StopGo reporter. human cells with a luciferase reporter of 2A StopGo recoding; control for the full effect not named in the record. Potency, µM (series often up to 57.9 µM), for the others: top-dose signal change, negative = less light. 410,000 compounds, 1.2% hits; active = well fitted falling curve with a large enough effect; inconclusive = small, poorly fitted or top-dose-only effect; inactive = no such curve, though single readings can be large or run the other way; tested in HEK293T cells; also: % is scaled to controls: 0 for no effect and ±100 for the full control effect; nearly all actives have a fitted effect of over 45% in size; luciferase light after 4 h
# NS1 inh: influenza NS1 inhibition | S. cerevisiae slowed by influenza A NS1, growth recovery by OD600 | Potency, µM (highest dose often 46.1 µM), for the others: at the highest dose activity, positive = more growth | 270,000 compounds, 0.4% hits | AID 2326; also: actives are rising curves; nearly all actives have a fitted effect of over 50% in size
#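 Growth recovery, yeast-based: influenza A NS1 expressed in S. cerevisiae causes slow growth, and suppressors are detected by OD600. The parent strain without NS1 is used as positive control.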
# LASV entry inh: Lassa virus entry inhibition; Potency, µM (top dose mostly 37.9 µM), inactives show top-dose activity change, negative = inhibition, hits mostly inhibitors; Lassa virus pseudotype entry inhibition, cell reporter; control for the full effect not named in the record; 300,000 compounds, 1.2% hits; AID 540256; active means well fitted inhibition curve with a large enough effect; inconclusive means small, poorly fitted or top-dose-only effect, or effect the other way; inactive means flat fitted curve, though single readings scatter; tested in HEK293 cells; also: % is scaled to controls: 0 for no effect and ±100 for the full control effect; nearly all actives have a fitted effect of over 50% in size; luciferase read-out
# SARS PLP yeast: blocks SARS-CoV papain-like protease in a yeast assay; 330,000 compounds, 0.19% hits; S. cerevisiae expressing SARS-CoV PLpro, growth rescue; control for the full effect not named in the record; Potency, µM (titrated, usually from 32.9 µM), for the others: at the highest dose activity, positive = growth rescue; also: 0% is about no effect; nearly all actives have a fitted effect of over 55% in size; growth read by luminescence after 48 h
# Cruzain inh noDet: blocks cruzain activity in detergent-free assay; P25779; purified cruzain, Z-FR-AMC fluorescence, no detergent; Potency, µM, for the others: max response, negative = inhibition, actives largely listed as inhibitors; 200,000 compounds, 2.3% hits; AID 1476; active = well fitted curve in the direction sought with a large enough effect; inconclusive = small, poorly fitted or top-dose-only effect, or another doubt; inactive = no such curve, though single readings can be large; an effect the other way counts as inactive or inconclusive;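 also: plate controls were enzyme without inhibitor for no effect and buffer without enzyme for full effect; nearly all actives have a fitted effect of over 40% in size; top concentration of the series not given in the record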
# Target sequence (P25779 123-467 limits assumed): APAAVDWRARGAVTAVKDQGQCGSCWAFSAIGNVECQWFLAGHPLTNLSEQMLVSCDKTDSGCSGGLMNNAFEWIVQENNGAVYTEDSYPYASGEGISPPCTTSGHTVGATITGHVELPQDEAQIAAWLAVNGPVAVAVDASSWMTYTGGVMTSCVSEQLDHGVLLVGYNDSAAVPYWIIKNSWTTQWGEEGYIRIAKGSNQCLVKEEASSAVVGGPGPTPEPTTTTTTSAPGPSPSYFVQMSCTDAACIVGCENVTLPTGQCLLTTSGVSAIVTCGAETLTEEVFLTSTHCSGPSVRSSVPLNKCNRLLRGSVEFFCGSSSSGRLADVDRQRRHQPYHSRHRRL
#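 Detergent-free condition (0.00005% Triton X-100) in acetate buffer pH 5.5 with DTT. 1.5 nM enzyme and compound were pre-mixed 15 min, then 2 uM Z-FR-AMC substrate added; reaction progress from fluorescence change between first and third reads (60 s).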
# MARV entry inh: Marburg virus entry inhibition. Marburg virus pseudotyped entry inhibition, cell reporter; control for the full effect not named in the record; about a third of the inactives were read at about 46 µM. Potency, µM (highest dose often 37.8 µM), for inactives: at the highest dose activity change, negative = inhibition, most hits filed as inhibitors. 300,000 compounds, 1.8% hits. AID 540276; active = well fitted inhibition curve with a large enough effect; inconclusive = small, poorly fitted or top-dose-only effect, or effect the other way; inactive = flat fitted curve, though single readings scatter; tested in HEK293 cells; about a fifth of its hits are not listed in these tables; also: % is scaled to controls: 0 for no effect and ±100 for the full control effect; luciferase read-out
# RE007 growth inh: less growth of the S. pombe RE007 Vpr strain | Potency, µM (top dose mostly 92.2 µM), for inactives: top-dose activity change, negative = less growth | S. pombe RE007 Vpr strain, BacTiter-Glo ATP luminescence, 24 h; control for the full effect not named in the record | 360,000 compounds, 0.21% hits; active = well fitted falling curve with a large enough effect; inconclusive = small, poorly fitted or top-dose-only effect; inactive = no such curve, though single readings can be large or run the other way;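 also: % is scaled to controls: 0 for no effect and ±100 for the full control effect; nearly all actives have a fitted effect of over 50% in size; the assay follows cell death caused by Vpr and the record does not say whether a fall means rescue or toxicity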
#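 Fission yeast RE007 carrying one integrated HIV-1 vpr copy, seeded at OD 0.01 in PMG+AL medium with 23 nL pinned compound. Grown 24 h at 30 degrees; viability read by BacTiter-Glo luminescence after 5 min.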
# Cruzain Triton: cruzain (T. cruzi) inhibition with detergent; Potency, µM, without a hit: max response, negative = inhibition, usual class: inhibitors; 200,000 compounds, 0.43% hits; purified cruzain, Z-FR-AMC fluorescence, 0.01% Triton; AID 1478; P25779; active = well fitted curve in the direction sought with a large enough effect; inconclusive = small, poorly fitted or top-dose-only effect, or another doubt; inactive = no such curve, though single readings can be large; an effect the other way counts as inactive or inconclusive;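 also: plate controls were neutral wells for no effect and buffer without enzyme for full effect; nearly all actives have a fitted effect of over 40% in size; top concentration of the series not given in the record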
#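 Sodium acetate buffer (100 mM, pH 5.5) containing 5 mM DTT and 0.01% Triton X-100 hosted 1.5 nM cruzain and test compound for 15 min at room temperature. Cleavage of 2 uM Z-FR-AMC was then tracked by fluorescence.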
# * marks the source's active call; other numbers are inactive results; ? = inconclusive; · = no result given; & = joins results of further samples; [ ] = another dose, or the depositor's remark. Unless noted, calls follow the shape of the dose curve; as a rule, active means well fitted rising curve with a large enough effect; inconclusive means small, poorly fitted or top-dose-only effect; inactive means no such curve, though single readings can be large or run the other way. Potency is read from the fitted curve at half-maximal effect.
# Start of the data: the first three entries (preview)
SMILES,StopGo reporter,NS1 inh,LASV entry inh,SARS PLP yeast,Cruzain inh noDet,MARV entry inh,RE007 growth inh,Cruzain Triton
CC(O)Cn1c(N2CCCC2)nc2c1c(=O)[nH]c(=O)n2C (stereo not drawn),-6%,4%,-2%,6%,·,23%,5%,·
COc1ccc2nc3oc(C(=O)N(C)c4ccc(Cl)cc4)cc3cc2c1,-19%,·,-21%[46.1 µM],·,-6%,9%[46.1 µM],·,-2.5%
CC(OC(=O)CCOc1ccccc1)C(=O)NC1CC1 (stereo not drawn),0%,·,-3%[46.1 µM],0%,·,?,-1%,·

# All compounds of this part, from the first entry:
SMILES,StopGo reporter,NS1 inh,LASV entry inh,SARS PLP yeast,Cruzain inh noDet,MARV entry inh,RE007 growth inh,Cruzain Triton
CC(O)Cn1c(N2CCCC2)nc2c1c(=O)[nH]c(=O)n2C (stereo not drawn),-6%,4%,-2%,6%,·,23%,5%,·
COc1ccc2nc3oc(C(=O)N(C)c4ccc(Cl)cc4)cc3cc2c1,-19%,·,-21%[46.1 µM],·,-6%,9%[46.1 µM],·,-2.5%
CC(OC(=O)CCOc1ccccc1)C(=O)NC1CC1 (stereo not drawn),0%,·,-3%[46.1 µM],0%,·,?,-1%,·
Cc1nnc(N2CCN(Cc3ccccc3)CC2)[nH]c1=O,-20%,-1%,17%,-2%,-1%,1%,25%,-0.4%
OC(c1cc(-c2cccc(Cl)c2)nc2ccccc12)C1CCCCN1 (stereo not drawn),?,·,?,·,·,11µM*,-20%,·
CCCCCSc1cc(OC)c(CCN(C)C)cc1OC,-1%,9%,?,2%,-4%,?,9%,6.8%
COc1ccc(CCNc2nc(SCc3ccc(F)cc3)nc3ccccc23)cc1OC,?,·,-9%[46.1 µM],·,11%,·,·,5.2%
Cc1nc2ccccc2n1C(=O)N1CCOCC1,-20%,3%,27%,21%,5%,4%[46.1 µM],-8%,3.6%
COc1cc(NC(=O)CN2CCN(C(=O)C3CCCO3)CC2)c(OC)cc1Cl (stereo not drawn),?,-4%,-2%,27%,·,-6%,-1%,·
c1cc2c(cc1Oc1nc(N3CCOCC3)nc(N3CCOCC3)n1)OCO2,-17%,-4%,?,0%,24%,?,-6%,4.7%
CN1CCN(C(=O)c2ccc3c(c2)N(C)C(=O)/C(=C/c2cccc(Cl)c2)S3)CC1,?,-4%,·,-4%,·,·,1%,·
COC(=O)c1sc(C(C)(C)C)cc1CS(=O)(=O)c1ccccn1,-24%,-3%,·,1%,·,·,-19%,·
CC(=O)N(C)c1ccc(NCc2cc(=O)oc3cc(C)c(O)cc23)cc1,-13%,0%,·,0%,·,·,2%,·
Cc1ccc(CNC(=O)COC(=O)c2ccc(Cl)c(N)c2)cc1,-6%,14%,-19%,-2%,1%,-4%,-13%,0.1%
COc1cccc(C2CC(C(F)(F)F)n3nc(C(=O)Nc4c(C)n(C)n(-c5ccccc5)c4=O)cc3N2)c1 (stereo not drawn),7%,4%,?,0%,·,?,-10%,·
COc1ccc(NC(=O)Cn2c(=O)n(CC3CCCO3)c(=O)c3ccccc32)cc1 (stereo not drawn),-8%,·,-8%[46.1 µM],·,-6%,3%[46.1 µM],·,-1.7%
COc1ccc(S(=O)(=O)NC(C)C(=O)NCc2cccnc2)cc1C (stereo not drawn),-14%,·,13%,-3%,·,?,18%,·
Cc1onc(-c2ccccc2)c1C(=O)Nc1c(C)n(C)n(-c2ccccc2)c1=O,0%,-2%,4%,5%,0%,4%,3%,1.0%
CC(=NC1CCCCC1)C1=C(O)c2ccccc2C1=O,·,-61%,?,-4%,-22%,?,2%,-9.6%
C[C@]1(C(=O)O)C=C[C@@H](Cc2ccccc2)N1C(=O)c1ccccc1,-13%,-10%,-14%,-6%,-11%,9%,9%,0.9%
CC(C)N(C(=O)c1nn(C)c2c1CSc1ccccc1-2)C1CCCCC1,-14%,15%,·,-5%,·,·,-12%,·
CCOC(=O)COc1cc(O)c2c(=O)cc(-c3ccccc3)oc2c1,6%,-4%,-14%,0%,·,-7%[46.1 µM],-2%,·
O=C(Nc1ccccc1)c1ccc(-c2ccccc2C(F)(F)F)o1,36%[activator],-65%,-2%,-24%,-2%,?,7%,-9.3%
CC(C)c1ccccc1OCC(O)CN1CCN(S(=O)(=O)c2ccc([N+](=O)[O-])cc2)CC1 (stereo not drawn),?,-16%,?,-4%,·,?,8%,·
O=C(CSc1ncnc2c1oc1ccccc12)N1CCc2ccccc2C1,·,10%,·,-7%,1%,0%,·,2.9%
Cn1c(=O)c2c(ncn2CC(=O)Nc2nc(-c3ccccc3Cl)cs2)n(C)c1=O,13µM*,-9%,?,0%,8%,?,2%,-6.6%
CS(=O)(=O)N1CCN(c2ccccc2NC(=O)Cc2ccc(Cl)cc2)CC1,-12%,-6%,-8%,?,-11%,-2%,-16%,0.9%
COc1ccc(CSc2nnnn2Cc2ccccc2)cc1OC,-19%,-9%,-17%,-8%,5%,?,20%,1.8%
CCc1ccccc1NC(=O)Cn1c(=O)n(C(C)C)c(=O)c2oc3ccccc3c21,-15%,·,17%[46.1 µM],·,-2%,·,·,0.4%
COc1cccc(C(=O)C2=NN(C(C)=O)CC2c2ccco2)c1 (stereo not drawn),-12%,·,?,1%,·,4%[46.1 µM],17%,·
CCOC(=O)CNC(=O)C12CC3CC(CC(C3)C1)C2,-2%,-1%,·,0%,·,-2%[46.1 µM],2%,·
Cc1ccc(S(=O)(=O)Nc2csc(C)c2C(=O)O)cc1,11%,9%,25%,0%,·,25%&25%[46.1 µM],-15%,·
O=C(CCCc1c[nH]c2ccccc12)N1CCCCCC1,47%[activator],-13%,-7%,4%,6%,-6%,?,-6.1%
N#CCC(=O)NN1Cc2ccccc2C1=N,1%,8%,·,17%,-5%,·,-6%,-0.2%
COc1ccc(C2=NOC(C(=O)Nc3ccc4c(c3)OCCO4)C2)c(OC)c1 (stereo not drawn),43%[activator],-3%,36%[46.1 µM],-1%,·,5%[46.1 µM],20%,·
CC1(C)Cc2nc3sc4c(NCCO)ncnc4c3cc2CS1,8%,3%,·,1%,·,·,-5%,·
O=C1/C(=C\c2ccco2)SC(=S)N1c1ccccc1,-2%,2%,0%,-6%,-18%,?,-11%,-12%
CN(C)S(=O)(=O)Nc1cc(Cl)cc(Cl)c1,0%,1%,?,-3%,·,7%[46.1 µM],8%,·
CCN(CC)S(=O)(=O)c1ccc(N2CCCC2)c(NC(=O)c2ccc(OC)cc2OC)c1,7%,·,?,-2%,·,?,7%,·
Cc1ccc(OCC(=O)Nc2ccccc2C(=O)OCc2cc(=O)n3ccsc3n2)cc1C,9%,·,13%[46.1 µM],·,-1%,·,·,3.0%
O=C(CN1C(=O)c2ccccc2C1=O)NCCc1c[nH]c2ccc(Cl)cc12,1%,12%,0%,-7%,-8%,13%,-6%,-15%
CC(C)c1nc2ccccn2c1NC1CCCCC1,-26%,-8%,-8%,2%,-12%,-42%,-26%,-4.0%
O=C(NC1CCN(C(=O)NC2CCCCC2)CC1)c1cccc(F)c1,0%,9%,·,1%,·,-2%[46.1 µM],-14%,·
CC1(C)Cc2c(sc(NC(=O)COc3ccc(Cl)cc3Cl)c2C(N)=O)C(C)(C)N1,-27%,0%,0%[46.1 µM],0%,·,?,10%,·
Cn1c(SCC2CCCCC2)nnc1-c1ccncc1,10%,-6%,15%,2%,11%,?,-17%,-0.6%
Nc1cc2nsnc2cc1Br,?,-37%,-47%,1%,2%,?,-19%,-0.2%
O=C(Oc1cccnc1)c1cc2ccccc2oc1=O,2%,-42%,-6%,-3%,?,?,?,-5.4%
CCOc1ccc(-n2c(SCc3ccc([N+](=O)[O-])cc3)nnc2-c2ccc(OC)cc2)cc1,-6%,17%,?,6%,8%,?,-3%,-5.7%
CCNc1c(NC(=O)COc2ccc(Cl)cc2)c(=O)oc2ccccc12,-14%,1%,·,12%,·,·,8%,·
Cc1ccc(N2C(=O)c3ccccc3C2=O)nc1,-1%,-2%,·,6%,·,·,-9%,·
O=C(CSc1nc(O)cc(=O)n1-c1ccccc1)NCc1ccccc1,13%,?,-4%,-1%,-12%,2%,-9%,1.2%
O=C(C1=NN[C@@H]2C(=O)N(Cc3ccccc3)C(=O)[C@H]12)c1ccc([N+](=O)[O-])cc1,-14%,6%,-3%[46.1 µM],0%,·,-13%[46.1 µM],-12%,·
CC(OC(=O)CC1CCCC1)C(=O)Nc1ccc(Cl)cn1 (stereo not drawn),-19%,·,-12%[46.1 µM],-2%,·,?,15%,·
Cc1csc(NC(=O)C2CCN(S(=O)(=O)c3cccs3)CC2)n1,?,·,-15%[46.1 µM],0%,·,?,-5%,·
Cc1ccc(N2C(=O)NC(NC(=O)C3CC3)(C(F)(F)F)C2=O)cc1 (stereo not drawn),3%,3%,?,-3%,-3%,?,?,1.5%
COc1ccccc1C(=O)Nc1cccc(C(=O)OCc2cc(=O)n3nc(C)sc3n2)c1,-1%,·,3%[46.1 µM],·,-7%,·,·,0.5%
COc1ccc(C(=O)Nc2cc(C)on2)cc1S(=O)(=O)N1CC(c2ccccc2)CC1=O (stereo not drawn),-7%,·,12%,-5%,·,3%[46.1 µM],4%,·
CN(C(=O)COC(=O)c1c2c(nc3ccccc13)/C(=C/c1cccc([N+](=O)[O-])c1)CCC2)C1CCS(=O)(=O)C1 (stereo not drawn),-10%,?,?,12%,17%,?,-13%,-5.2%
CS(=O)(=O)c1ccc(Cl)c(NC(=O)COC(=O)CNC(=O)c2cccs2)c1,-4%,·,21%,-1%,·,4%,6%,·
Cc1c(Cl)cccc1NC(=O)CCC(=O)NNC(=O)c1ccccc1,-14%,5%,2%,18%,6%,8%,6%,2.4%
Cc1cccc(N2C(=O)CS/C2=N\NC(=O)c2ccc(Br)cc2)c1C,13%,0%,?,6%,-9%,6%,-16%,-2.9%

# Bioassay records (PubChem)
